CapD inh – inhibitors of Bacillus anthracis CapD enzyme. purified CapD enzyme, fluorescence intensity read-out; stronger effect = lower value; some hits fall short of the stated cut. z-score (no concentration beside the values). 0.23% of 140,000 active. AID 492967;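 active means z-score under -4 in either of two replicates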;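 further: stock transfer was 100 nL into about 40 µL; score is relative to mean and spread of the plate; one replicate is shown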
AID504770 – growth inhibitors of E. coli YBA685 in a screen for V. cholerae RctB (chromosome II replication) inhibitors; E. coli YBA685 rctB-dependent plasmid, OD600 growth, 3 h; stronger effect = lower value; z-score (concentration not given with the values); 0.27% of 130,000 active; AID 504770;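 active means z-score under -2 on both plates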;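 further: wells of about 30 µL received 100 nL stock; score is relative to mean and SD of the test wells; the first replicate is given; strong numbers were not always called active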
Starred values were filed as active, the others as inactive; · = no result given. The order is random, and some 0.41% of all compounds hit somewhere here.

SMILES	CapD inh	AID504770
CCO/C=C1\SC(=S)N(Cc2ccccc2)C1=O	-0.945	-0.6
COc1ccc(CCNC(=O)CCCc2nnc3n(C)c(=O)c4sccc4n23)cc1OC	-0.46	-1.05
CSCCC(CO)NS(=O)(=O)c1ccc(C#N)cc1 (stereo not given)	-0.945	·
O=S(=O)(NCc1csc2ccc(Cl)cc12)c1cc(S(=O)(=O)c2ccccc2)cs1	0.36	-0.05
O=C(O)c1ccc2c3c(cccc13)C(=O)N(c1ccccc1O)C2=O	-1.34	1.1
COc1ccc(C2C(C(C)=O)=C(C)N=c3s/c(=C\c4cc(C)n(-c5ccccc5)c4C)c(=O)n32)c(OC)c1 (stereo not given)	0.31	·
Fc1ccc(Oc2ccc3nnc(-c4ccccc4)n3n2)cc1	2.1	-0.9
CCOC(=O)C1CCN(S(=O)(=O)C(F)(F)c2nc3ccccc3s2)CC1	·	-2.45
COc1ccc(C2=N/C(=C\c3ccco3)C(=O)O2)cc1	0.325	-0.3
COc1ccc2c3c1OC1CC(O)C=C[C@@]31CCN(C)C2 (stereo not given in full)	0.165	0
O=C(Cn1c(=O)oc2ccccc21)NC12CC3CC(CC(C3)C1)C2	-0.065	0.25
CCOC(=O)N1CCC(NC(=O)CNC(=O)c2ccco2)CC1	-0.155	-2.65*
Cc1ccc(C(=O)NCC(O)c2ccccc2)cc1 (stereo not given)	-0.42	-0.55
Nc1nc(SCC(=O)N2CCCC2)[nH]c(=O)c1-c1ccccc1	-0.35	-0.1
N#Cc1c(-c2ccccc2)cc(C2CC2)nc1N	69.7	2.35
CCN(C(=O)Cc1c(C(=O)O)n(CC)c2ccccc12)c1cccc(C(F)(F)F)c1	-0.33	·
Cc1c(S(=O)(=O)c2ccc(Cl)cc2)csc1C(=O)NCc1ccco1	-0.05	-0.3
Cc1ccc(-n2nc3c(c2NC(=O)c2ccc(S(=O)(=O)N4CCOCC4)cc2)CSC3)c(C)c1	-0.865	·
O=C(Cc1ccc(Cl)cc1)N1CCN(c2ccc(F)cc2)CC1	-0.42	-0.6
COc1cccc(-c2cc(C(F)(F)F)nc(SC3CC(=O)C4OCC3O4)n2)c1 (stereo not given)	6.36	-0.1
O=C(N[C@@H](Cc1ccccc1)C(=O)NCc1cccs1)c1cccs1	·	-1.5
COC(=O)C1C2C=CC3(CN(C(c4ccccc4)c4ccccc4)C(=O)C13)O2 (stereo not given)	-0.78	2.05
O=C(Nc1ccc2[nH]c(=O)[nH]c2c1)c1cc(-c2ccco2)nc2ccccc12	·	-0.95
CCOC(=O)c1ccc(NC(=O)CSc2nnc(CNC(=O)c3ccco3)n2-c2ccc(F)cc2)cc1	·	0.65
CCCC(C)C(=O)NCc1ccccc1 (stereo not given)	0.195	-0.8
CCCOc1ccc(C(C)(O)CN2CCOCC2)cc1 (stereo not given)	·	-0.2
COc1ccc2nc3c(nc2c1)CCCC3	89.3	-0.55
COc1ccc(C(=O)NCCN2CCCC2)cc1OC	·	-1.1
CCOC(=O)c1cc(-c2ccc(F)cc2)n(CC(=O)NCc2cccs2)c1C	-1.61	2.75
COc1cc(Br)c(CN2CCCC(COC(=O)NNC(=O)c3ccc(O)cc3)C2)cc1OC (stereo not given)	-0.55	·
O=C1CC(c2cccc(O)c2)C2=C(CC(c3cccs3)CC2=O)N1 (stereo not given)	0.03	-0.35
NC(=O)C1CCN(C(=O)c2cccc3ccccc23)CC1	1.08	0.1
COc1ccc(OC)c(C2C(C(=O)Nc3nc4ccccc4s3)=C(C)NC3=C2C(=O)CCC3)c1 (stereo not given)	0.665	·
Cc1ccc(C2CC(c3cccs3)=NN2C(=O)CSc2nnc(CNC(=O)c3ccco3)n2-c2ccccc2)cc1 (stereo not given)	·	-0.75
CCOCCOC(=O)COc1ccc2c(=O)c(-c3ccc(Cl)cc3)c(C(F)(F)F)oc2c1	-0.16	·
O=C(CN1C(=O)CSc2cc(S(=O)(=O)N3CCCC3)ccc21)NC1CCCCCC1	0.3	0.55
O=C(COc1ccccc1OC(=O)c1ccc(Cl)cc1)NCc1ccccc1Cl	-1.05	2.5
CCOC(=O)C1=C(CSc2nnc(C)s2)NC(=O)NC1c1ccccc1OC (stereo not given)	·	-0.35
Cc1nc(-c2cccnc2)sc1C(=O)Nc1cccc(C(F)(F)F)c1	-0.43	·
CCOC(=O)CSc1nnc(-c2cc(OC)c(OC)c(OC)c2)o1	0.06	0
COc1ccccc1NC1(C#N)CCCCC1	0.155	0.1
Cc1nc(CCn2cnc3cc(C)c(C)cc32)no1	-0.265	0.6
CC(NC(=O)Cn1ncc2ccsc2c1=O)C12CC3CC(CC(C3)C1)C2 (stereo not given)	0.25	1.6
CCCc1nc2ccccc2c2c1C(=O)N(Cc1ccc(OC)cc1OC)C2=O	0.965	·
COc1cccc(C(=O)Nc2cccc(C)c2)c1	0.165	-0.65
CN1C(=O)SC(Cc2ccc(N)cc2)C1=O (stereo not given)	-0.185	-0.9
N#CC(c1cccs1)(c1ncc(C(F)(F)F)cc1Cl)N1CCOCC1 (stereo not given)	0.055	·
COc1cccc(C(=O)NCc2nnc(SCC(=O)N3CCc4ccccc43)n2-c2cc(OC)ccc2OC)c1	-0.76	·
CCOc1ccc(-c2nnc3ccc(SCC(N)=O)nn23)cc1	·	-0.45
O=C(Nc1ccccc1)N1CCC(n2c(=O)[nH]c3ccccc32)CC1	-0.525	-1.05
O=C(N/N=C/c1ccnc2ccccc12)c1ccco1	1.11	·
C=CCN1C(c2ccc(C)cc2)=CS/C1=C(\C#N)C(=O)OCC	-1.11	-1.05
O=S(=O)(c1cccs1)N1CCOCC1	-0.255	-1.2
COC(=O)c1ccc2c(=O)n(Nc3nc(C)cc(C)n3)c(SCc3cccc(F)c3)nc2c1	0.96	·
CC(C)(C)c1cc(C(C)(C)C)n(-c2cnc3ccccc3n2)n1	0.145	0
CC(=O)c1cc2cc([N+](=O)[O-])ccc2o1	-0.185	·
COc1ccc(-c2nnc(SC(C(=O)NC(N)=O)c3ccccc3)n2CC2CCCO2)cc1 (stereo not given)	·	0
O=C(Cn1cc(C(F)(F)F)ccc1=O)N1CCN(S(=O)(=O)c2ccc(Cl)cc2)CC1	·	0.1
Cc1ccc(/C=N/NC(=O)c2sccc2OCc2ccc(F)cc2)cc1	0.04	·
CC(=O)Oc1ccc2oc(=O)sc2c1	·	-0.8

Another view of part of the listing above.
structure,CapD inh,AID504770
CC(NC(=O)Cn1ncc2ccsc2c1=O)C12CC3CC(CC(C3)C1)C2 (stereo not given),0.25,1.6
CCCc1nc2ccccc2c2c1C(=O)N(Cc1ccc(OC)cc1OC)C2=O,0.965,·
COc1cccc(C(=O)Nc2cccc(C)c2)c1,0.165,-0.65
CN1C(=O)SC(Cc2ccc(N)cc2)C1=O (stereo not given),-0.185,-0.9
N#CC(c1cccs1)(c1ncc(C(F)(F)F)cc1Cl)N1CCOCC1 (stereo not given),0.055,·
COc1cccc(C(=O)NCc2nnc(SCC(=O)N3CCc4ccccc43)n2-c2cc(OC)ccc2OC)c1,-0.76,·
CCOc1ccc(-c2nnc3ccc(SCC(N)=O)nn23)cc1,·,-0.45
O=C(Nc1ccccc1)N1CCC(n2c(=O)[nH]c3ccccc32)CC1,-0.525,-1.05
O=C(N/N=C/c1ccnc2ccccc12)c1ccco1,1.11,·
C=CCN1C(c2ccc(C)cc2)=CS/C1=C(\C#N)C(=O)OCC,-1.11,-1.05
O=S(=O)(c1cccs1)N1CCOCC1,-0.255,-1.2
COC(=O)c1ccc2c(=O)n(Nc3nc(C)cc(C)n3)c(SCc3cccc(F)c3)nc2c1,0.96,·
CC(C)(C)c1cc(C(C)(C)C)n(-c2cnc3ccccc3n2)n1,0.145,0
CC(=O)c1cc2cc([N+](=O)[O-])ccc2o1,-0.185,·
COc1ccc(-c2nnc(SC(C(=O)NC(N)=O)c3ccccc3)n2CC2CCCO2)cc1 (stereo not given),·,0
O=C(Cn1cc(C(F)(F)F)ccc1=O)N1CCN(S(=O)(=O)c2ccc(Cl)cc2)CC1,·,0.1
Cc1ccc(/C=N/NC(=O)c2sccc2OCc2ccc(F)cc2)cc1,0.04,·
CC(=O)Oc1ccc2oc(=O)sc2c1,·,-0.8

Following part:
SMILES	CapD inh	AID504770
C=CCn1c(Cc2ccccc2)nc2c(cnn2-c2ccccc2)c1=O	-0.325	1.15
Oc1nc2c(Cl)c(Cl)c(Cl)cc2o1	0.55	-1.3
Cn1nc(SCC(=O)N2c3ccccc3CCc3ccccc32)sc1=S	0.025	-0.4
Clc1ccc2nc(CN3CCCCC3)cn2c1	0.145	-0.55
CCCOc1ccc(/C=N/NC(=O)c2ccc3nonc3c2)cc1	0.615	·
CCOC(=O)N1CCC(C(=O)O)CC1	-0.03	-0.5
CCOc1cc(C(=O)Nc2c3c(nn2-c2ccc(Cl)cc2)CS(=O)(=O)C3)cc(OCC)c1OCC	0.095	·
CCOc1ccc2cc(S(=O)(=O)N3CCN(C)CC3)ccc2c1	9.78	-0.25
Cc1[nH]c(=O)[nH]c(=O)c1S(=O)(=O)N1CCOc2ccccc2C1	0.475	-1
Cc1[nH]n(-c2ccccc2)c(=O)c1CCC#N	0.64	-1
CC(=O)N1CCc2cc(C(O)CN(Cc3ccccc3)Cc3ccccc3)ccc21 (stereo not given)	0.285	0.1
CCOC(=O)C(CC)Sc1nc2c(c(=O)[nH]c(=O)n2C)n1C (stereo not given)	-0.11	·
CCC(C)NC(=O)c1cccc2c1SCCC2=O (stereo not given)	-1.29	-0.85
O=C(c1cnn(C(=O)C2COc3ccccc3O2)c1)c1ccccc1O (stereo not given)	·	-0.95
Cc1cc(=O)n2c3c(sc2n1)C(=O)N(Cc1ccccc1)C3=O	-0.06	-0.55
O=C(CN1C(=O)C2CCc3[nH]c4ccccc4c3C2C1=O)N1CCCC1 (stereo not given)	·	-0.95
COC(=O)c1sc2ccccc2c1OC(=O)c1cccnc1Oc1ccccc1	0.825	·
O=C1/C(=C/c2ccc(-c3ccc([N+](=O)[O-])cc3)o2)C=C(c2ccccc2)N1c1ccc(-c2ccccc2)cc1	-0.87	·
Cc1c(N=Cc2ccc(Br)cc2)c(=O)n(-c2ccccc2)n1C	0.04	·
COC(=O)C1CN(C)CCC1=O (stereo not given)	1.4	-0.05
CC(Sc1ncnc2nc[nH]c12)c1ccccc1Cl (stereo not given)	0.175	-0.75
Cc1nc2c(cc1C(=O)NN)c(=O)n(C)c(=O)n2C	10.5	-0.85
Cc1ccc(Cn2c(C(C)O)nc3ccccc32)cc1 (stereo not given)	-0.35	-0.45
COc1ccc(S(=O)(=O)N2CCC(NC(=O)NC3CCCC3)CC2)cc1	4.29	-0.85
COc1ccccc1OCCNC(=O)c1ccc(S(=O)(=O)N(C)C)cc1	-0.105	-0.65
CC(C)(C)c1ccc(C(=O)Nc2n[nH]c(C(F)(F)F)n2)cc1	-0.235	1
CCC(=O)Nc1c(CC)cccc1CC	0.47	1.1
O=C(NC1CCCC1)C1COc2ccccc2O1 (stereo not given)	-0.195	-0.7
CCCCc1c(C)nc(C2CC2)[nH]c1=O	-0.095	-2.05
Nc1nnc2ccccc2n1	-1.51	-0.4
C/C(=N\NC(=O)c1ccc(CSc2nc3ccccc3[nH]2)cc1)c1ccco1	·	-0.45
CC(=O)Oc1ccc(N(C(C)=O)S(=O)(=O)c2cccs2)cc1	-2.75	0.15
C=CCn1c(=O)c(C(=O)Nc2ccccc2)c(O)c2ccccc21	0.8	0.65
COc1ccc(C2C(C#N)=C(N)Oc3n[nH]c(-c4ccc5c(c4)OCO5)c32)cc1OC (stereo not given)	-0.19	·
CCOc1ccc(-c2cnc(SCC)nc2N)cc1	1.1	2.4
Cc1nc2sccn2c1Br	·	-0.9
Cc1nc2c(C(=O)N3CCC4(CC3)OCCO4)c[nH]n2c(=O)c1Cc1ccccc1Cl	1.2	-0.8
COc1ccc(-n2c(=S)[nH]c3cc(C(=O)Nc4ccc(OC)c(Cl)c4)ccc3c2=O)c(OC)c1	-0.465	·
CC(C)(C)c1cc(-c2cn3nc(-c4ccccc4)c(-c4ccccc4)nc3n2)c2c(c1)C(C)(C)CC2	26.2	·
N#Cc1ccc(S(=O)(=O)N2CCCC(CO)C2)cc1 (stereo not given)	-0.81	·

Looked up one by one from the list above, 2 records:
SMILES	CapD inh	AID504770
CC(=O)Oc1ccc(N(C(C)=O)S(=O)(=O)c2cccs2)cc1	-2.75	0.15
CN1C(=O)SC(Cc2ccc(N)cc2)C1=O (stereo not given)	-0.185	-0.9

(listing goes on)
SMILES	CapD inh	AID504770
CN1C/C(=C\c2cc(Br)cs2)C(=O)/C(=C/c2cc(Br)cs2)C1	0.17	-0.8
COc1ccc(N=C2SC(C(=O)Nc3ccc(C(=O)O)cc3)CC(=O)N2Cc2ccc3c(c2)OCO3)cc1 (stereo not given)	0.04	·
Nc1ncnc(SCc2c(F)cccc2Cl)n1	0.56	·
CCN(CC)C(=O)N1CCN(C(=O)N(CC)CC)CC1	·	-0.05
O=C(NC1CCCC1)c1ccccc1C(F)(F)F	·	-0.25
CCCCCCCC(Cl)C(=O)OC1CCC2(C)C(=CCC3C2CCC2(C)C(C(C)CCCC(C)C)CCC32)C1 (stereo not given)	0.095	·
CCOC(=O)c1c(-c2ccccc2)oc2ccc(OCC(=O)c3ccc(Br)cc3)cc12	30.3	·
CC1(C)CC(C)(c2ccc(O)cc2O)N(c2cccc(Cl)c2)C(=S)N1 (stereo not given)	0.07	·
CCCCS(=O)(=O)Nc1nccs1	·	-0.6
N#C/C(=C\c1cccs1)c1csc2ccc(Cl)cc12	-0.195	-0.5
COc1ccc(N=C2SCC(=O)N2C)cc1	·	-0.2
NCC(O)CN(c1ccccc1)c1ccccc1 (stereo not given)	·	-0.7
Cc1ccc(C2=C/C(=C\c3cccnc3)C(=O)O2)cc1	0.73	-0.2
CCCOc1ccccc1/C=N/NC(=S)Nc1cccc(F)c1	1.12	·
CC1CCCCN1S(=O)(=O)c1cccs1 (stereo not given)	-0.37	0.1
Cc1cccc(NC(=O)Cn2c(=O)n(Cc3ccccc3)c(=O)c3c(C)c(C(=O)N(C)C)sc32)c1	-0.15	-0.5
O=C(O)CC(C(=O)O)c1c[nH]c2ccccc12 (stereo not given)	1.22	-0.95
CC1=C/C(=C/N(C)c2ccccc2)C(=O)S1	-0.57	-0.7
